OX1R antagonist = human HCRTR1 antagonism | O43613 | CHO/OX1R cells, Fluo-8 calcium fluorescence, orexin A | inhibition, % at 5 µM | actives 0.43% (n = 330,000) | AID 434989;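 active means inhibition above its plate's threshold, mean inhibition of all tested compounds on the plate plus 3 SD, cut at about 37% in these data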;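 further: 0% = orexin A challenge wells and 100% = SB-334867-A antagonist wells; not every result past the cut was called active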
Target sequence (O43613 whole entry, looked up): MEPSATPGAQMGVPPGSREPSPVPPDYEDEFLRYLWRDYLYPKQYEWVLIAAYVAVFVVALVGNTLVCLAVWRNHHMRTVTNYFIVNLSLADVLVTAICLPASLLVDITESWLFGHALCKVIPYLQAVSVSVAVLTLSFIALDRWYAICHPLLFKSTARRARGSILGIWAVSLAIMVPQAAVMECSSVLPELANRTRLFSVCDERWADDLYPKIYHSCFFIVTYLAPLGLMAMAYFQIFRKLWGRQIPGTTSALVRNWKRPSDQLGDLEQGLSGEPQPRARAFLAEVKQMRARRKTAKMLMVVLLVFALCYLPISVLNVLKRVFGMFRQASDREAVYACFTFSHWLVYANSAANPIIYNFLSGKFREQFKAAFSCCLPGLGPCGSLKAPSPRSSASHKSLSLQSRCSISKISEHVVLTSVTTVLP
Starred values were filed as active, the others as inactive. Only part of the results is shown; most or all hits stand in other tables.

How did CN(C)C(=O)c1ccccc1Sc1cc(Cl)ccc1Cl do in these assays?
OX1R antagonist: -9

Results for CC(CCc1ccc(O)cc1)NCCc1ccc(O)c(O)c1 (configuration not stated) ?
OX1R antagonist: -3

How did COc1ccc(/C=C/C(=O)Oc2ccc(C=O)cc2OC)cc1 do in these assays?
OX1R antagonist: -8

What do the screens show for `O=C1CCC(/C=C/c2ccccc2)=NN1Cc1ccc(F)cc1`?
OX1R antagonist: -31

Results for Cc1cccc(-n2c(SCC(=O)O)nc3sc4c(c3c2=O)CCCC4)c1 ?
OX1R antagonist: -13

How did COc1ccc(-c2nc3cc(C)ccn3c2NCC2CCCO2)cc1OC (configuration not stated) do in these assays?
OX1R antagonist: -16

What do the screens show for `CC(C)=C1SC(N2CCN(c3cccc(Cl)c3)CC2)=NC1=O`?
OX1R antagonist: -10

Results for Cc1ccc(S(=O)(=O)NCCSc2ccccc2)cc1[N+](=O)[O-] ?
OX1R antagonist: -31

Results for O=C(CN1CCOCC1)NCc1cc([N+](=O)[O-])ccc1O ?
OX1R antagonist: -6

How did Cc1cc(C(=O)N/N=C/c2ccncc2)c2ccccc2n1 do in these assays?
OX1R antagonist: -5

How did CCc1ccccc1NC(=O)c1cc(-c2ccc3c(c2)OCO3)on1 do in these assays?
OX1R antagonist: -3

Results for COc1ccc(NC(=O)c2cncc(Br)c2)c(S(=O)(=O)N2CCOCC2)c1 ?
OX1R antagonist: -9

Results for O=C(COc1cccc2ccccc12)NNC(=O)[C@@H]1CCCC[C@@H]1C(=O)O ?
OX1R antagonist: -21

What do the screens show for `CCCNC(=O)CC(NS(=O)(=O)c1ccc(NC(C)=O)cc1)C(C)C` (configuration not stated)?
OX1R antagonist: -13

Results for COCc1ccc(CN2CCC(n3nccc3NC(=O)C(OC)c3ccccc3)CC2)o1 (configuration not stated) ?
OX1R antagonist: -5

Results for COc1ccc(/C=C/c2nnc(NC(=O)CC(C)C)s2)cc1 ?
OX1R antagonist: -22

How did Cc1ccc(NC(=O)CNCc2ccccn2)cc1S(=O)(=O)N(C)C do in these assays?
OX1R antagonist: -9

Results for CCN(CC)c1ccc(NC(=O)CN2CCN(S(=O)(=O)c3cc(Cl)ccc3OC)CC2)cc1 ?
OX1R antagonist: -6

Results for COc1ccccc1OCC(=O)Nc1cc(NC(=O)COc2ccccc2OC)cc(C(=O)O)c1 ?
OX1R antagonist: -7

What do the screens show for `Cc1ccccc1S(=O)(=O)NCc1ccc(N2CCN(C)CC2)cc1`?
OX1R antagonist: 5

How did CC(C)c1ccc2oc(=O)cc(CN3CCN(c4ccc(F)cc4)CC3)c2c1 do in these assays?
OX1R antagonist: -19

Results for CCCNC(=O)c1ccc(N(Cc2ccccc2)S(C)(=O)=O)cc1 ?
OX1R antagonist: 3

Results for O=C1c2ccccc2C(Nc2ccc(F)cc2F)N1CCN1CCOCC1 (configuration not stated) ?
OX1R antagonist: -15

How did CCn1nnc(NC(=O)c2cc(Cl)c(OC)c(Cl)c2)n1 do in these assays?
OX1R antagonist: -16

How did O=C(/C=C/c1cn(CC(O)CN2CCCCC2)c2ccccc12)c1cccs1 (configuration not stated) do in these assays?
OX1R antagonist: -17

How did CCOc1ccc(C(=O)Nc2nnc(S(=O)(=O)Nc3ccccc3C)s2)cc1 do in these assays?
OX1R antagonist: -6

Results for COc1ccccc1NC(=O)Nc1cccnc1 ?
OX1R antagonist: -14

What do the screens show for `CCc1ccc2oc(=O)cc(CN3CCN(CCO)CC3)c2c1`?
OX1R antagonist: -13

How did Cn1c(SCC#N)nnc1-c1cccnc1 do in these assays?
OX1R antagonist: -10

What do the screens show for `O=C(c1ccccc1)N(Cc1nc2ccccc2c(=O)[nH]1)C1CCCCC1`?
OX1R antagonist: -28

How did CCOC(=O)N/N=C(\C)c1ccccc1OC(F)F do in these assays?
OX1R antagonist: 2

Results for Cc1ccc(C)c(-n2c(SCC(=O)N3CCCC3)nnc2-c2ccccn2)c1 ?
OX1R antagonist: -19

Results for Cc1ccc(C)n1NC(=O)c1ccc([N+](=O)[O-])cc1 ?
OX1R antagonist: -34

What do the screens show for `O=C1CCC(C(=O)Nc2cccc(Br)c2)N1` (configuration not stated)?
OX1R antagonist: -8

Results for COC(=O)c1ccc(CN2CCCC(C(=O)c3ccccc3OC)C2)cc1 (configuration not stated) ?
OX1R antagonist: -18

Results for Cc1cccc(NC(=O)NNC(=O)COc2ccc([N+](=O)[O-])cc2)c1C ?
OX1R antagonist: -11

What do the screens show for `CCC(=O)OCC(=O)Nc1cc(C)c(C)cc1[N+](=O)[O-]`?
OX1R antagonist: 6

Results for CC(=O)Nc1ccc(OCc2cnc(Cl)s2)cc1 ?
OX1R antagonist: 0

How did O=S(=O)(Nc1nnc(C2CCCCC2)s1)c1ccc(F)cc1 do in these assays?
OX1R antagonist: -17

How did Cc1ccc(NC2=C(Cl)C(=O)OC2OC(=O)c2ccco2)cc1C (configuration not stated) do in these assays?
OX1R antagonist: 11

Results for Cc1ncc(C(=O)O)c(C(=O)O)c1N ?
OX1R antagonist: -17

Results for COCCn1nnnc1C(c1cccc(OC)c1OC)N1CCN(C2CCCCC2)CC1 (configuration not stated) ?
OX1R antagonist: -5

Results for [O-]/C(=C(\C(=S)Nc1ccc(Cl)cc1)[n+]1ccccc1)c1ccc(OC(F)F)cc1 ?
OX1R antagonist: -21

How did COc1cc(C(=O)OC(C)CN2CCCC2)cc(OC)c1OC (configuration not stated) do in these assays?
OX1R antagonist: -28

What do the screens show for `CCOc1ccc(N2C(=O)CC(Sc3ncccn3)C2=O)cc1` (configuration not stated)?
OX1R antagonist: -14

What do the screens show for `COc1cc(OC)cc(C2C(C#N)=C(N)Oc3n[nH]c(-c4cccnc4)c32)c1` (configuration not stated)?
OX1R antagonist: -8

How did CC(Oc1ccc(Cl)cc1Cl)/C(N)=N/O (configuration not stated) do in these assays?
OX1R antagonist: -5

How did Cn1nc(-c2ccc(C(=O)Nc3cccc(Cl)c3)cc2)c2ccccc2c1=O do in these assays?
OX1R antagonist: -33

How did CC(=O)Nc1ccc(SCC(=O)N2CCN(S(=O)(=O)c3ccccc3)CC2)cc1 do in these assays?
OX1R antagonist: -1

What do the screens show for `COc1ccc(CNC2CCSc3ccccc32)cc1OC` (configuration not stated)?
OX1R antagonist: -22

Results for Cc1c(NC(=O)CS(=O)(=O)c2ccccc2)c(=O)n(-c2ccccc2)n1C ?
OX1R antagonist: -11

How did CN1C/C(=C/c2cccs2)C(=O)/C(=C\c2cccs2)C1 do in these assays?
OX1R antagonist: -21

How did CCN(CCn1cccn1)C(=O)CCc1nnc(C2(c3ccc(Cl)cc3)CCC2)o1 do in these assays?
OX1R antagonist: -21

How did O=C(O)CCC(=O)NNC(=O)c1ccc(Br)cc1 do in these assays?
OX1R antagonist: -11

How did CCCCNCc1cccn1-c1ccccc1 do in these assays?
OX1R antagonist: -19

What do the screens show for `OC1CCCN(Cc2cn(Cc3ccccc3)nc2-c2cc3ccccc3o2)C1` (configuration not stated)?
OX1R antagonist: -23

Results for CCCC[C@@H]1C[C@H]1[C@@H](NC(=O)c1ccco1)c1ccc(Cl)cc1 ?
OX1R antagonist: -24

How did CCOc1cccc(-c2nc3c(s2)CCc2onc(-c4cccc([N+](=O)[O-])c4)c2-3)c1 do in these assays?
OX1R antagonist: 6

Results for CCc1nnc(NC(=O)c2ccc(S(=O)(=O)N(C)c3ccccc3)cc2)o1 ?
OX1R antagonist: -3

Results for COc1ccc(OC)c(-c2cc(C(=O)N3CCN(c4ccccc4)CC3)no2)c1 ?
OX1R antagonist: -20

How did Cc1nnc(NC(=O)CSc2nnc(C(C)NC(=O)c3ccccc3F)n2C)s1 (configuration not stated) do in these assays?
OX1R antagonist: 2

Results for COc1ccc(-n2nc3c(c2NC(=O)CBr)CSC3)cc1 ?
OX1R antagonist: -4

Results for CC1(C)CC(=O)C2=C(C1)N(Cc1ccco1)C(=O)NC2(C(F)(F)F)C(F)(F)F ?
OX1R antagonist: -2

What do the screens show for `COC(=O)C1CCN(C(=O)c2ccc(NC(C)=O)cc2)CC1`?
OX1R antagonist: -11

Results for CCOc1ccccc1NC(=O)C(=O)NCC1CCCN1CC (configuration not stated) ?
OX1R antagonist: -20

What do the screens show for `CC(=O)OC1c2ccccc2C(=O)N1Cc1ccccc1` (configuration not stated)?
OX1R antagonist: -10

What do the screens show for `O=C(O)c1cc2ccccc2n1-c1ccccc1`?
OX1R antagonist: -4

How did O=C(NCc1ccc(F)cc1)C1CCC(CNc2c(N3CCOCC3)c(=O)c2=O)CC1 (configuration not stated) do in these assays?
OX1R antagonist: 8

How did COc1ccc(C(=O)/C=C/Nc2ccc([N+](=O)[O-])cc2C)cc1OC do in these assays?
OX1R antagonist: -22

What do the screens show for `Cc1cc2oc(=O)cc(Cn3ccnc3)c2cc1C`?
OX1R antagonist: -2

How did Cn1cc(CCNCc2cn[nH]c2-c2ccc(-c3ccccc3)cc2)cn1 do in these assays?
OX1R antagonist: -35

What do the screens show for `Cc1cccc(-n2c(C)cc(C=C(C#N)C#N)c2C)c1`?
OX1R antagonist: -13

Results for C=C1C(C(=O)Nc2ccc(F)cc2)C1C(=O)Nc1ccc(F)cc1 (configuration not stated) ?
OX1R antagonist: 2

Results for CCOC(=O)c1ccc(N2C(=O)C=CC2=O)cc1 ?
OX1R antagonist: -16

Results for Nc1nnc(CSCc2ccc(F)cc2)s1 ?
OX1R antagonist: -10

How did O=C(O)C1=C[C@@H](c2ccc(F)cc2)C[C@@H](OCCCCO)O1 do in these assays?
OX1R antagonist: -11

How did O=C(/C=C/c1ccccc1)C1=C(O)C(=O)N(CCO)C1c1ccc2c(c1)OCO2 (configuration not stated) do in these assays?
OX1R antagonist: 6

What do the screens show for `CCC(CC)C1=NN2C(=N)/C(=C/c3ccc(OC(=O)c4ccco4)cc3)C(=O)N=C2S1`?
OX1R antagonist: -13

What do the screens show for `Cn1c(=O)c2c(nc(CN3CCc4ccccc4C3)n2CCCO)n(C)c1=O`?
OX1R antagonist: -7

How did C(=N\N1CCOCC1)/c1nc(-c2ccccc2)n2ccccc12 do in these assays?
OX1R antagonist: -21

How did Cc1nc(Nc2ccc(S(=O)(=O)N3CCCC3)cc2)c2nnn(Cc3ccccc3)c2n1 do in these assays?
OX1R antagonist: -27

What do the screens show for `COc1ccc(C(=O)/C=C/c2ccc(O)cc2)cc1`?
OX1R antagonist: -5

How did Cc1cc(C)c(S(=O)(=O)N(C)CC(=O)N2CCCCC2)c(C)c1 do in these assays?
OX1R antagonist: -9

What do the screens show for `O=C(Cn1cnc2c(nnn2Cc2ccccc2)c1=O)N1CCN(c2ccccc2)CC1`?
OX1R antagonist: -14

How did CSc1nsc(SCC(=O)Nc2ccc(C(C)=O)cc2)n1 do in these assays?
OX1R antagonist: -15

What do the screens show for `C=C(C)c1nc(N)nc(N)n1`?
OX1R antagonist: 1

Results for O=C(NC1CC1)C1=C[C@@H](c2ccccc2)C[C@@H](OCCCCO)O1 ?
OX1R antagonist: -3

How did Cc1ccc(C(=O)Oc2ccc(N3C(=O)CCC3=O)c(C)c2)cc1 do in these assays?
OX1R antagonist: -5

How did Cc1cccc2c1CC(C)(C)N=C2C1=C(O)CCCC1=O do in these assays?
OX1R antagonist: -20

Results for Cc1ccc(CNS(=O)(=O)N(C)C)cc1 ?
OX1R antagonist: -19

Results for CCOC(=O)c1ccc(S(=O)(=O)N2CCN(CCC#N)CC2)cc1 ?
OX1R antagonist: -24

Results for CSc1nc(C)cc(SCC(=O)Nc2ccccc2)n1 ?
OX1R antagonist: -12

What do the screens show for `Cc1cccc(C(=O)Nc2ccccc2-c2nnn(CC(=O)Nc3ccc4c(c3)OCCO4)n2)c1`?
OX1R antagonist: -13

What do the screens show for `O=C(CCS(=O)(=O)c1ccccc1)Nc1ccc(N2CCOCC2)cc1`?
OX1R antagonist: -13

Results for CC(C)NC(=O)COc1ccc(S(=O)(=O)N2CCCC2)cc1 ?
OX1R antagonist: -9

What do the screens show for `O=C(NC(=S)NC1CCN(Cc2ccccc2)CC1)c1ccc(F)cc1`?
OX1R antagonist: -21

Results for C[C@H](NC(=O)c1ccc2c(c1)OCO2)c1nnc2ccccn12 ?
OX1R antagonist: -4

How did CC(=O)c1c(C)oc2ccc(N(C(=O)c3ccncc3)S(=O)(=O)c3ccccc3)cc12 do in these assays?
OX1R antagonist: -16

How did CC(SC(=S)N1CCOCC1)C(=O)O (configuration not stated) do in these assays?
OX1R antagonist: -15

How did COc1ccc(/C=N\NC(=O)COc2ccc(C(C)(C)C)cc2)cc1Cn1nc(C)cc1C do in these assays?
OX1R antagonist: 3

How did C/C(=N\NC(=S)Nc1ccc(C)cc1)c1cccc(N)c1 do in these assays?
OX1R antagonist: -21

Filtered by structure: the entries above with two or more sulfur atoms
Results for Cc1cccc(-n2c(SCC(=O)O)nc3sc4c(c3c2=O)CCCC4)c1 ?
OX1R antagonist: -13

Results for Cc1ccc(S(=O)(=O)NCCSc2ccccc2)cc1[N+](=O)[O-] ?
OX1R antagonist: -31

How did CCOc1ccc(C(=O)Nc2nnc(S(=O)(=O)Nc3ccccc3C)s2)cc1 do in these assays?
OX1R antagonist: -6

How did O=S(=O)(Nc1nnc(C2CCCCC2)s1)c1ccc(F)cc1 do in these assays?
OX1R antagonist: -17

How did CC(=O)Nc1ccc(SCC(=O)N2CCN(S(=O)(=O)c3ccccc3)CC2)cc1 do in these assays?
OX1R antagonist: -1

How did CN1C/C(=C/c2cccs2)C(=O)/C(=C\c2cccs2)C1 do in these assays?
OX1R antagonist: -21

How did Cc1nnc(NC(=O)CSc2nnc(C(C)NC(=O)c3ccccc3F)n2C)s1 (configuration not stated) do in these assays?
OX1R antagonist: 2

Results for Nc1nnc(CSCc2ccc(F)cc2)s1 ?
OX1R antagonist: -10

How did CSc1nsc(SCC(=O)Nc2ccc(C(C)=O)cc2)n1 do in these assays?
OX1R antagonist: -15

Results for CSc1nc(C)cc(SCC(=O)Nc2ccccc2)n1 ?
OX1R antagonist: -12

How did CC(SC(=S)N1CCOCC1)C(=O)O (configuration not stated) do in these assays?
OX1R antagonist: -15

High-throughput results: PubChem, The Scripps Research Institute Molecular Screening Center
